Cruzain noTriton: qHTS Assay for Promiscuous and Specific Inhibitors of Cruzain (without detergent) | Cruzipain (Trypanosoma cruzi), P25779 | purified cruzain, Z-FR-AMC fluorescence, no detergent | Potency, µM, for inactives: max response, negative = inhibition, actives largely listed as inhibitors | hit rate 2.3% among 200,000 | AID 1476, 2009; active = well fitted curve in the direction sought with a large enough effect; inconclusive = small, poorly fitted or top-dose-only effect, or another doubt; inactive = no such curve, though single readings can be large; an effect the other way counts as inactive or inconclusive;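 also: plate controls were enzyme without inhibitor for no effect and buffer without enzyme for full effect; nearly all actives have a fitted effect of over 40% in size; top concentration of the series not given in the record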
Target sequence (P25779 123-467 limits assumed): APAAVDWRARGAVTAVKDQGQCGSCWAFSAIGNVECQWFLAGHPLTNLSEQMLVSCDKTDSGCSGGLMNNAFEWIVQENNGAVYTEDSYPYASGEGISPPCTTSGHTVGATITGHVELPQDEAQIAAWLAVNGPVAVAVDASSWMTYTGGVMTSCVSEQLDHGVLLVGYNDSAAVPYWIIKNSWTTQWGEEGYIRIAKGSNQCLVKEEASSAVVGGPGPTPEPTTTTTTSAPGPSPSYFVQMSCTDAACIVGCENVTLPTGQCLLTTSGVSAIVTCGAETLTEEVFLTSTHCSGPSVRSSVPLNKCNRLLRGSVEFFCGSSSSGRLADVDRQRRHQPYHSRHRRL
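Detergent-free condition (0.00005% Triton X-100) in acetate buffer pH 5.5 with DTT. 1.5 nM enzyme and compound were pre-mixed 15 min, then 2 uM Z-FR-AMC substrate added; reaction progress from fluorescence change between first and third reads (60 s).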
2A StopGo: High Throughput Screening for Foot and Mouth Disease Virus Antivirals. Potency, µM (series often up to 57.9 µM), inactives show at the highest dose signal change, negative = less light. AID 1159524, 2015. hit rate 1.2% among 410,000. human cells with a luciferase reporter of 2A StopGo recoding; control for the full effect not named in the record; active = well fitted falling curve with a large enough effect; inconclusive = small, poorly fitted or top-dose-only effect; inactive = no such curve, though single readings can be large or run the other way; tested in HEK293T cells; also: % is scaled to controls: 0 for no effect and ±100 for the full control effect; nearly all actives have a fitted effect of over 45% in size; luciferase light after 4 h
Cruzain Triton: qHTS Assay for Promiscuous and Specific Inhibitors of Cruzain (with detergent); Potency, µM, without a hit: max response, negative = inhibition, hits mostly inhibitors; hit rate 0.43% among 200,000; Cruzipain (Trypanosoma cruzi), P25779; purified cruzain, Z-FR-AMC fluorescence, 0.01% Triton; active = well fitted curve in the direction sought with a large enough effect; inconclusive = small, poorly fitted or top-dose-only effect, or another doubt; inactive = no such curve, though single readings can be large; an effect the other way counts as inactive or inconclusive;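 also: plate controls were neutral wells for no effect and buffer without enzyme for full effect; nearly all actives have a fitted effect of over 40% in size; top concentration of the series not given in the record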
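Sodium acetate buffer (100 mM, pH 5.5) containing 5 mM DTT and 0.01% Triton X-100 hosted 1.5 nM cruzain and test compound for 15 min at room temperature. Cleavage of 2 uM Z-FR-AMC was then tracked by fluorescence.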
Lassa entry inh: qHTS for Inhibitors of binding or entry into cells for Lassa Virus; Lassa virus pseudotype entry inhibition, cell reporter; control for the full effect not named in the record; Potency, µM (doses to about 37.9 µM), inactives show at the top dose activity change, negative = inhibition, hits mostly inhibitors; hit rate 1.2% among 300,000; AID 540256, 2011; active means well fitted inhibition curve with a large enough effect; inconclusive means small, poorly fitted or top-dose-only effect, or effect the other way; inactive means flat fitted curve, though single readings scatter; tested in HEK293 cells; also: % is scaled to controls: 0 for no effect and ±100 for the full control effect; nearly all actives have a fitted effect of over 50% in size; luciferase read-out
SARS PLpro yeast: qHTS of Yeast-based Assay for SARS-CoV PLP; hit rate 0.19% among 330,000; S. cerevisiae expressing SARS-CoV PLpro, growth rescue; control for the full effect not named in the record; AID 485353, 2010; Potency, µM (top dose mostly 32.9 µM), without a hit: at the top dose activity, positive = growth rescue; also: 0% is about no effect; nearly all actives have a fitted effect of over 55% in size; growth read by luminescence after 48 h
RE007 growth inh: qHTS Assay for Inhibitors of the HIV-1 protein Vpr. AID 651644, 2012. Potency, µM (highest dose often 92.2 µM), without a hit: at the highest dose activity change, negative = less growth. hit rate 0.21% among 360,000. S. pombe RE007 Vpr strain, BacTiter-Glo ATP luminescence, 24 h; control for the full effect not named in the record; active = well fitted falling curve with a large enough effect; inconclusive = small, poorly fitted or top-dose-only effect; inactive = no such curve, though single readings can be large or run the other way;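 also: % is scaled to controls: 0 for no effect and ±100 for the full control effect; nearly all actives have a fitted effect of over 50% in size; the assay follows cell death caused by Vpr and the record does not say whether a fall means rescue or toxicity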
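Fission yeast RE007 carrying one integrated HIV-1 vpr copy, seeded at OD 0.01 in PMG+AL medium with 23 nL pinned compound. Grown 24 h at 30 degrees; viability read by BacTiter-Glo luminescence after 5 min.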
Marburg entry inh: qHTS for inhibitors of binding or entry into cells for Marburg Virus; Marburg virus pseudotyped entry inhibition, cell reporter; control for the full effect not named in the record; about a third of the inactives were read at about 46 µM; Potency, µM (series often up to 37.8 µM), for the others: top-dose activity change, negative = inhibition, usual class: inhibitors; hit rate 1.8% among 300,000; AID 540276, 2011; active = well fitted inhibition curve with a large enough effect; inconclusive = small, poorly fitted or top-dose-only effect, or effect the other way; inactive = flat fitted curve, though single readings scatter; tested in HEK293 cells; about a fifth of its hits are not listed in these tables; also: % is scaled to controls: 0 for no effect and ±100 for the full control effect; luciferase read-out
NS1 function inh: qHTS Assay for Inhibitors of Influenza NS1 Protein Function | S. cerevisiae slowed by influenza A NS1, growth recovery by OD600 | Potency, µM (highest dose often 46.1 µM), for the others: at the top dose activity, positive = more growth | hit rate 0.4% among 270,000; also: actives are rising curves; nearly all actives have a fitted effect of over 50% in size
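Compounds were scored for reversing the slow growth caused by influenza A NS1 in S. cerevisiae, measured by optical density at 600 nm. Assay medium contained 2% galactose at pH 6.0; NS1-free yeast of the same strain were the positive control.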
An asterisk follows results filed as active; ? = inconclusive; . = not tested or not shown; [ ] = dose if it differs, or a comment. Unless noted, calls follow the shape of the dose curve; as a rule, active means well fitted rising curve with a large enough effect; inconclusive means small, poorly fitted or top-dose-only effect; inactive means no such curve, though single readings can be large or run the other way. Potency is read from the fitted curve at half-maximal effect.

SMILES	Cruzain noTriton	2A StopGo	Cruzain Triton	Lassa entry inh	SARS PLpro yeast	RE007 growth inh	Marburg entry inh	NS1 function inh
CCC1CN(C(=O)Nc2cccc(C)c2)c2cc(C)ccc2O1 (stereo unspecified)	.	-18%	.	-9%[46.1 µM]	0%	0%	?	-11%
Cc1[nH]c(=O)[nH]c(=O)c1S(=O)(=O)N1c2ccc(F)cc2CCC1C (stereo unspecified)	3%	-9%	2.1%	16%	9%	-1%	22%	3%
COc1ccc2c(c1OC)C(=O)N1C(C(=O)O)Cc3c([nH]c4ccccc34)C21 (stereo unspecified)	5%	-5%	-9.6%	2%	5%	7%	15%	2%
Cc1cccc(NS(=O)(=O)c2ccc(C(=O)NCC(c3ccco3)N3CCCCC3)cc2)c1C (stereo unspecified)	.	-3%	.	?	2%	2%	?	.
COc1cc(/C=C(\NC(C)=O)C(=O)NC(C)(C)C)ccc1OC(C)=O	-9%	-9%	-0.2%	-5%	13%	-15%	2%	-15%
O=C(Cc1ccccc1[N+](=O)[O-])NC1CC1	.	-7%	.	1%	-2%	-17%	11%[46.1 µM]	.
COc1ccc(N(C)C(=O)Cc2c(C(=O)O)[nH]c3ccccc23)c(OC)c1	.	-13%	.	-1%	-1%	29%	-23%[46.1 µM]	.
COc1ccc(CN(C)C(=O)c2cccc(S(=O)(=O)N3CCN(c4ccccc4)CC3)c2)c(OC)c1OC	.	?	.	?	-6%	14%	?	.
COc1ccc(/C=N/Nc2nc(-c3cccnc3)nc3ccccc23)cc1OC	.	-12%	.	-24%[46.1 µM]	-2%	-22%	?	11%
CCC(=O)Nc1nc2ccccc2n1Cc1ccccc1Cl	.	-20%	.	.	4%	-27%	.	-1%
Cc1ccc(NC(=O)NCC2CCN(Cc3cc(C)ccc3Cl)CC2)c(C)c1	.	-22%	.	?	1%	-3%	?	.
Cc1ccnc(NC(=O)Nc2ccc(Br)cc2Cl)c1	.	9%	.	?	1%	-1%	-26%	.
Nc1nonc1-n1nnc(C(=O)N/N=C/c2c(Cl)cccc2Cl)c1CSC1=NCCS1	.	-5%	.	.	-1%	-3%	.	7%
CCc1ccc(NC(=O)Nc2cn(C)c(=O)c3ccccc23)cc1	?	-22%	-26%	-2%[46.1 µM]	.	.	.	.
COc1ccc2c(CC(=O)N[C@@H](Cc3ccccc3)C(=O)O)cc(=O)oc2c1C	.	-8%	.	.	-1%	-7%	.	0%
Cc1cc(C(=O)NC(C)C2CCCO2)cs1 (stereo unspecified)	0%	-3%	0.8%	-2%	2%	8%	6%	-3%
COc1ccc(S(=O)(=O)N2CCCC2CNC(=O)C(=O)Nc2cccc(F)c2)cc1 (stereo unspecified)	.	0%	.	-18%	1%	7%	3%	.
O=C(c1oc(=O)c2ccccc2c1-c1ccccc1)N1CCC(O)CC1	-4%	9%	-1.5%	.	-1%	0%	.	3%
COc1cc(CCC(C)NCc2ccccc2)ccc1O (stereo unspecified)	.	-12%	.	?	-2%	6%	-6%[46.1 µM]	4%
CCCCCS(=O)(=O)c1oc(-c2cccs2)nc1S(=O)(=O)c1ccc(C)cc1	-14%	28µM*	-5.5%	-10%[46.1 µM]	.	.	-1%[46.1 µM]	.
Cc1cccc(N2CCN(S(=O)(=O)c3ccc(-c4cnc(C5CC5)o4)cc3)CC2)c1C	?	?	-1.1%	?	.	.	.	.
COc1ccc(OC)c(Nc2nc(NCCCN(C)C)nc(N)c2[N+](=O)[O-])c1	.	-19%	.	?	1%	-15%	-10%[46.1 µM]	2%
COc1ccc(-c2noc(N3CCC(C(=O)Nc4ccc(F)cc4F)CC3)n2)cc1	.	-9%	.	.	1%	-3%	.	9%
O=C(NCCc1ccccc1)c1c(F)c(F)c(F)c(F)c1F	9%	9%	-6.4%	2%	-4%	6%	20%	3%

Grouped by structure: the compounds so far with a thiophene ring, fused or not (2)
SMILES	Cruzain noTriton	2A StopGo	Cruzain Triton	Lassa entry inh	SARS PLpro yeast	RE007 growth inh	Marburg entry inh	NS1 function inh
Cc1cc(C(=O)NC(C)C2CCCO2)cs1 (stereo unspecified)	0%	-3%	0.8%	-2%	2%	8%	6%	-3%
CCCCCS(=O)(=O)c1oc(-c2cccs2)nc1S(=O)(=O)c1ccc(C)cc1	-14%	28µM*	-5.5%	-10%[46.1 µM]	.	.	-1%[46.1 µM]	.

Next records.
SMILES	Cruzain noTriton	2A StopGo	Cruzain Triton	Lassa entry inh	SARS PLpro yeast	RE007 growth inh	Marburg entry inh	NS1 function inh
COc1ccc(N=c2cc(-c3ccc(OC)cc3)oc3ccccc23)cc1	-10%	-18%	-19%	?	-40%	-11%	-12%	-49%
O=c1c2ccccc2nc(SCc2ccc([N+](=O)[O-])cc2)n1-c1ccc(Cl)cc1	13µM*	-19%	-1.9%	7%	-30%	2%	-2%[46.1 µM]	-2%
Cc1ccc(C)c(NS(=O)(=O)c2ccc(OCC(=O)NCc3ccco3)cc2)c1	10%	8%	-5.0%	-28%	-1%	8%	-11%	-11%
O=C(O)CN1CCN(Cc2ccccc2F)C1=O	.	-10%	.	-2%[46.1 µM]	-1%	-7%	-23%[46.1 µM]	.
Cc1ccc(C(=O)NCC(=O)NCC(c2cccs2)N(C)C)cc1C (stereo unspecified)	.	22%	.	17%	-2%	9%	9%	.
O=C(c1cc2ccccc2cc1O)N1CCCC(C(F)(F)F)C1 (stereo unspecified)	.	9%	.	.	1%	1%	.	2%
CC(=O)c1sc(NC(=O)c2cc3c(C)nn(-c4ccccc4)c3s2)nc1C	-2%	-11%	1.1%	-11%	5%	-4%	20%	3%
O=C(CNCC1CCCO1)Nc1ccc([N+](=O)[O-])cc1C(=O)Nc1ccccc1F (stereo unspecified)	.	-18%	.	.	4%	-3%	.	-1%
Cc1ccc(/C(N)=N/OC(=O)N2CCOCC2)cc1	12%	.	1.3%	?	-8%	-1%	15µM*	-6%
CCOP(=O)(OCC)C1(O)C(=O)Nc2ccc(Br)cc21 (stereo unspecified)	-8%	?	-2.7%	-14%	3%	-11%	0%	2%
COc1ccc(Cl)cc1NC(=O)N(C)Cc1c(C)nn(C)c1C	-9%	-9%	0.3%	3%	6%	-15%	-5%	-5%
COc1ccc(-c2noc(=O)n2Cc2ccc(C#N)cc2)cc1	.	-29%	.	4%	-1%	2%	-2%	2%

Five entries picked at random from the list so far:
SMILES	Cruzain noTriton	2A StopGo	Cruzain Triton	Lassa entry inh	SARS PLpro yeast	RE007 growth inh	Marburg entry inh	NS1 function inh
O=C(CNCC1CCCO1)Nc1ccc([N+](=O)[O-])cc1C(=O)Nc1ccccc1F (stereo unspecified)	.	-18%	.	.	4%	-3%	.	-1%
O=C(O)CN1CCN(Cc2ccccc2F)C1=O	.	-10%	.	-2%[46.1 µM]	-1%	-7%	-23%[46.1 µM]	.
Cc1ccc(C)c(NS(=O)(=O)c2ccc(OCC(=O)NCc3ccco3)cc2)c1	10%	8%	-5.0%	-28%	-1%	8%	-11%	-11%
CC(=O)c1sc(NC(=O)c2cc3c(C)nn(-c4ccccc4)c3s2)nc1C	-2%	-11%	1.1%	-11%	5%	-4%	20%	3%
O=c1c2ccccc2nc(SCc2ccc([N+](=O)[O-])cc2)n1-c1ccc(Cl)cc1	13µM*	-19%	-1.9%	7%	-30%	2%	-2%[46.1 µM]	-2%

The list goes on:
SMILES	Cruzain noTriton	2A StopGo	Cruzain Triton	Lassa entry inh	SARS PLpro yeast	RE007 growth inh	Marburg entry inh	NS1 function inh
Fc1ccc(OCc2nn[nH]n2)c(F)c1	.	-2%	.	.	2%	11%	.	9%
COc1ccc(C(=O)/C=C/Nc2ccc(S(=O)(=O)Nc3cccc(C(C)=O)c3)cc2)cc1	?	0%	-1.7%	?	2%	10%	?	-5%
Cc1c(C(=O)N2CCCCC2)c(S(=O)(=O)N2CCN(c3ccc(F)cc3)CC2)c(C)n1C	.	-13%	.	.	3%	13%	.	-9%
COc1ccccc1CN1CC(C(=O)NC2CCCCC2)CC1=O (stereo unspecified)	5%	.	2.5%	2%	3%	-3%	-2%	-8%
CN(C)C(=O)c1ccc(-n2nc(C(F)(F)F)c3c2CCCC3)cc1	?	-23%	1.6%	-8%	-5%	-6%	?	-13%
Cc1cccc(NC(=O)c2oc3c(c2C)-c2[nH]ncc2CC3)c1C	?	25%	-10%	?	.	.	14%[46.1 µM]	.
CC(C)COc1ccc(C(=O)NCC2OCCc3ccccc32)cc1 (stereo unspecified)	2%	-6%	-4.5%	-21%[46.1 µM]	.	.	.	.
Cc1sc2nc3c(C(=O)N4CCN(c5ccccn5)CC4)cccn3c(=O)c2c1C	-10%	.	0.4%	.	-3%	.	4%	4%
CCN(CCNc1ccc([N+](=O)[O-])c2cccnc12)S(=O)(=O)c1ccccc1	17%	-6%	-5.8%	-4%	18%	-11%	24%	3%
O=C1CC(C(=O)N2CCN(S(=O)(=O)c3cccc(F)c3)CC2)CN1Cc1ccccc1Cl (stereo unspecified)	.	-29%	.	-4%	2%	5%	?	.
CC(C)=CC(=O)Nc1c(C)cc(C)cc1Cl	.	-4%	.	-4%[46.1 µM]	-1%	3%	24%[46.1 µM]	1%
CC(NC(=O)CCCc1nnc2n(C)c(=O)c3sccc3n12)c1ccccc1 (stereo unspecified)	.	-6%	.	.	2%	-4%	.	6%
CCCSc1nnc(CNS(=O)(=O)c2ccc(C)cc2)n1C	.	5%	.	-26%[46.1 µM]	?	9%	2%[46.1 µM]	4%
O=C(c1cc([N+](=O)[O-])cc([N+](=O)[O-])c1)N1CCCc2ccccc21	.	-25%	.	12%	0%	-6%	10µM*	2%
O=C(Cc1c(Cl)cccc1Cl)Nc1ccncc1	.	-25%	.	.	-9%	-6%	.	-71%
Oc1ccc(C[C@@H]2CNC(=S)N2CCc2cc(C(F)(F)F)cc(C(F)(F)F)c2)cc1	.	-16%	.	.	1%	-1%	.	4%

Compound activity as filed in PubChem BioAssay.
